S1P2 blocker = S1P2 (human) receptor antagonism; O95136; AID 736; inhibition, % at 5 µM; 97,000 compounds, 0.21% hits; cell-based S1P2 antagonist assay, inhibition at 5 uM; in the data active = inhibition above about 45%;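 note: CRE beta-lactamase reporter cells expressing human S1P2 stimulated with S1P; 0% = agonist at EC80 alone and 100% = agonist plus reference antagonist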
S1P2 ag = agonists of human S1P2 receptor. 97,000 compounds, 0.46% hits. activation, % at 4.5 µM. O95136. S1P2-expressing cell line, agonist reporter read-out; in the data active = activation above about 16%;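 note: 0% = vehicle low control and 100% = maximal reference agonist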
E coli WT exp = E. coli BW25113 growth inhibition, expanded screen. 98,000 compounds, 0.15% hits. OD600 absorbance. growth inhibition, % at 100 µM;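 active = growth inhibition above about 50% at one test dose, limit read from the data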;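 note: growth measured after 20 h incubation at 37 °C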
PostGolgi ctrl = yeast control strain growth, post-Golgi counter-screen | AID 738 | inhibition, % at 10 µM | 98,000 compounds, 5% hits | efflux-deficient yeast background strain, growth absorbance A615, 16 h
PostGolgi yeast = growth inhibition of a yeast mutant, post-Golgi transport screen | 98,000 compounds, 0.9% hits | post-Golgi transport phenotypic cell assay | inhibition, % at 10 µM;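 note: yeast cells grown in 1536-well plates; yeast grown about 18 h at 30C before absorbance read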
PLAP act = human PLAP activation | activation fold at 20 µM | AID 696 | P05187 | 96,000 compounds, 1.2% hits | purified PLAP enzyme, luminescent substrate read-out; hits give high values; in the data active = activation fold above about 2
CD11b adhes inh = blocks human CD11b/CD18 adhesion to fibrinogen; K562 CD11b/CD18 adhesion to fibrinogen, ATPlite luminescence; Mn2+ added to activate the integrin; inhibition, % at 10 µM; 93,000 compounds, 0.54% hits; AID 1497;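 active = primary inhibition of 50% or more at 10 µM, then 40% or more on retest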; note: some results filed as inactive read as strong as hits
Target sequence (P05107 whole entry, looked up, other chains not shown): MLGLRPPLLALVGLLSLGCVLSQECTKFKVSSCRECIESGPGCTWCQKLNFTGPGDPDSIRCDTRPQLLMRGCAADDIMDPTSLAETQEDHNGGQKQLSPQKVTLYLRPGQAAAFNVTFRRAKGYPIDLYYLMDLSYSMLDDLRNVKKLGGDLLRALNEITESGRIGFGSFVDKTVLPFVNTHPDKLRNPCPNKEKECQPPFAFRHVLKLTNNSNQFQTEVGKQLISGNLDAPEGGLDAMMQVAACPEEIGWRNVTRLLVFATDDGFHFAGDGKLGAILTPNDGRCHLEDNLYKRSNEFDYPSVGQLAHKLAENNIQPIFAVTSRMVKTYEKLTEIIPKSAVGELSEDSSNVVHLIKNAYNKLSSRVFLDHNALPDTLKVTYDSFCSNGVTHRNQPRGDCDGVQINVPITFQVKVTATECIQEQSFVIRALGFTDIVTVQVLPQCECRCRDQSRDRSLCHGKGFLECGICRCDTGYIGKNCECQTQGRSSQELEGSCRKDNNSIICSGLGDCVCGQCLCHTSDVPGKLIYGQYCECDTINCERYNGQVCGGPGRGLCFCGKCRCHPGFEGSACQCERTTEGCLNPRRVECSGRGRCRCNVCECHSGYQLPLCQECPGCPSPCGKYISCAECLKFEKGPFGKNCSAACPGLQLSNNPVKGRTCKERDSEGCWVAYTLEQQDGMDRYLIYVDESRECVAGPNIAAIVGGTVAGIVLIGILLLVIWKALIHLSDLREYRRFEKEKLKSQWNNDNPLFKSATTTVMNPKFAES
* hit, by the source's call; . = no result given. Cut-off read from the data, not from the text of the source, unless noted: active = inhibition above about 30%; inactive = the rest.

Structure,PostGolgi ctrl,E coli WT exp,S1P2 blocker,S1P2 ag,PostGolgi yeast,CD11b adhes inh,PLAP act
CC(=O)Nc1ccc(S(=O)(=O)NCC2CCC(C(=O)NCCC3=CCCCC3)CC2)cc1 (configuration not stated),8,-7,0,-6,3,3,0.9
N#Cc1c(N)nc2c3c(sc(=N)c2c1N)NC(=O)CC3c1ccccc1Cl (configuration not stated),2,-2,12,-7,4,-1,0.9
Cc1cn(Cc2ccccc2)c(=O)[nH]c1=O,-1,1,3,-3,-4,-13,1
COc1ccc(N(CC(=O)N2c3ccccc3CC2C)S(=O)(=O)c2c(C)noc2C)cc1 (configuration not stated),28,-23,-9,-2,-7,-11,1.6
CC(C)COc1cccc(C(=O)Nc2ccc(S(=O)(=O)N3CCOCC3)cc2)c1,9,-14,-8,-7,-6,32,0.8
NS(=O)(=O)c1ccc(NC(=O)C2CCCN(S(=O)(=O)c3ccc(F)cc3)C2)cc1 (configuration not stated),8,0,-8,-10,-18,.,0.9
COc1ccccc1NC(=O)CSc1ccc2nnc(-c3ccncc3)n2n1,-10,3,-19,-2,3,-1,0.8
O=C(NC1CCCCC1)C1CCN(c2nccs2)CC1,0,7,24,-5,3,-16,0.9
CCc1ccc(OCCCOc2ccc(C=O)cc2)cc1,14,0,-2,-4,-2,-27,0.8
Cc1ccc(C)c(NS(=O)(=O)c2cc(C(=O)NCCC3=CCCCC3)ccc2C)c1,14,1,-15,-7,-8,26,1.2
COc1ccc(C(=O)NC(=O)CSc2nnc(-c3ccco3)n2-c2ccccc2)cc1,3,-1,8,-12,10,-2,1.2
O=C(NCCCO)NC12CC3CC(CC(C3)C1)C2,-1,6,-19,0,-2,-4,1.1
CCOC(=O)/C(=C\c1ccc([N+](=O)[O-])o1)NC(=O)c1ccccc1,1,0,-19,0,4,-6,0.8
CCOC(=O)c1c(C)n(C)c2ccc(OC)c(NC(=O)CN3CCN(C(=O)c4ccco4)CC3)c12,6,4,-7,-3,18,-11,1.5
O=C(Nc1cccc2ccccc12)NC1CCCc2ccccc21 (configuration not stated),4,-14,-1,-4,3,-8,0.8
O=C(Cc1ccccc1)N/N=C/c1ccc(Cl)cc1Cl,24,1,2,2,3,12,1
Cc1ccc(CNc2ccc(O)cc2)cc1,1,-2,8,2,7,-5,1.1
O=C(O)CN1C(=O)SC(Nc2ccc(C(=O)O)cc2)C1=O (configuration not stated),5,-3,-5,0,-7,-8,0.9
COc1ccc(/C=N/NC(=O)c2cccc([N+](=O)[O-])c2)cc1OS(=O)(=O)c1ccc(C)cc1,5,-6,0,-7,5,.,1
CC(C)C(C)(C#N)NC(=O)CSc1nnc(C(F)(F)F)n1C (configuration not stated),6,0,7,-6,4,-9,1
O=C(Nc1ccccc1)N1CCOCC1,3,5,13,-6,-12,.,1
COc1ccc(/C=N/NC(=O)CO/N=C(\C)c2cccs2)cc1,7,-6,-12,-5,4,-21,1
O=C(NC1CCN(C(=S)NCc2ccco2)CC1)C1CCCCC1,-8,-4,5,-4,-6,-3,0.8
c1ccc(C2Nc3ccccc3-c3nc4ccccc4n32)nc1 (configuration not stated),3,7,18,-1,-2,.,.
O=C(Nc1ccc(Cl)cn1)c1cccc(S(=O)(=O)N2CCOCC2)c1,4,4,-3,-5,9,8,1.5
CC(C)CNC(=O)CSc1nc(-c2cccs2)cc(C(F)(F)F)n1,.,.,-10,-2,.,.,.
COc1cc(S(=O)(=O)N2CCOCC2)ccc1NC(=O)COC(=O)C12CC3CC(CC(C3)C1)C2,35*,-1,4,-1,-10,-9,1
O=C(O)CCCCCCCCCC(=O)c1cccs1,3,-1,11,-2,-1,16,1.3
O=C(NCc1ccc2c(c1)OCO2)C1CCN(S(=O)(=O)c2cccs2)CC1,-2,-2,8,-2,-2,52,1.1
O=C(NC(NC(=S)Nc1ccccc1C(=O)O)C(Cl)(Cl)Cl)c1cccc([N+](=O)[O-])c1 (configuration not stated),2,8,15,-5,4,.,1.3
CCOc1cc(C)c(Cl)cc1S(=O)(=O)NCc1ccc2c(c1)OCO2,7,-5,-24,-2,12,-10,1.1
O=C(NCCCO)c1nnc(Cc2c(F)cccc2Cl)o1,0,-3,0,-6,4,12,0.8
Cc1nc(NCC2CCCO2)[nH]c(=O)c1CCC(C)C (configuration not stated),3,9,25,-3,7,.,0.8
Cc1cccc(NC(=O)C2CCCN2S(=O)(=O)c2ccc(F)cc2)c1C (configuration not stated),3,3,-7,-2,3,-7,0.9
COc1cc(C2C(C(C)=O)=C(O)C(=O)N2CCN(C)C)ccc1O (configuration not stated),0,3,-10,-4,-2,0,1.1
Fc1ccc(/C=C2\CCCC3=C2Nc2ncnn2C3c2ccc(F)cc2)cc1 (configuration not stated),81*,-8,17,-12,14,14,1.1
COc1ccc(S(=O)(=O)N2CCC(NC(=O)Nc3ccc(C)cc3)CC2)cc1,-1,4,27,-5,-7,.,0.9
Cc1cc(N2CCN(c3cccc(C)c3C)CC2)nc(-c2ccccc2)n1,.,.,-24,-1,.,.,.
CC1=C(C(=O)Nc2ccccn2)C(c2cccnc2)n2nnnc2N1 (configuration not stated),7,2,21,-9,6,-29,1
Cc1ccccc1C(=O)c1c[nH]c(C(=O)NCCCn2ccnc2)c1,-4,12,-4,-9,9,3,1.6
C/C(CC1CC2=C(CC1(C)C)C(C)(C)CCC2)=N\NC(N)=S (configuration not stated),80*,-1,-4,2,104*,-8,0.9
Cc1ccccc1CS(=O)(=O)CCC(=O)NCCCN1CCOCC1,-1,2,6,-8,-3,.,1
C=CCn1c(Cc2csc(N)n2)nnc1SCC(=O)Nc1ccccc1C(F)(F)F,14,6,-8,-2,1,-2,0.8
CCS(=O)(=O)Nc1ccc(-c2ccc(NS(=O)(=O)CC)c(OC)c2)cc1OC,10,-16,5,-2,11,.,.
CC(=O)Nc1ccc(C(=O)OCC(=O)NC(=O)NC2CCCCC2)cc1,7,-12,1,1,-4,13,1
O=C(NCc1ccccc1Cl)C1CCN(S(=O)(=O)N2CCC3(CC2)OCCO3)CC1,6,0,10,-5,3,.,1.1
O=C(NC1CCCC1)C1CC(=O)N(CCc2ccccc2)C1 (configuration not stated),10,6,12,-4,-7,9,1
O=C(O/N=C\c1ccc(N2CCCCC2)c([N+](=O)[O-])c1)c1cccc(Cl)c1,7,1,13,-2,-5,.,1

In another format: 4 of the compounds above.
Under each structure – PostGolgi ctrl | E coli WT exp | S1P2 blocker | S1P2 ag | PostGolgi yeast | CD11b adhes inh | PLAP act
Cc1ccccc1CS(=O)(=O)CCC(=O)NCCCN1CCOCC1
 : -1 | 2 | 6 | -8 | -3 | . | 1
CC1=C(C(=O)Nc2ccccn2)C(c2cccnc2)n2nnnc2N1 (configuration not stated)
 : 7 | 2 | 21 | -9 | 6 | -29 | 1
O=C(NC1CCCC1)C1CC(=O)N(CCc2ccccc2)C1 (configuration not stated)
 : 10 | 6 | 12 | -4 | -7 | 9 | 1
Cc1ccccc1C(=O)c1c[nH]c(C(=O)NCCCn2ccnc2)c1
 : -4 | 12 | -4 | -9 | 9 | 3 | 1.6

Other structures
Structure,PostGolgi ctrl,E coli WT exp,S1P2 blocker,S1P2 ag,PostGolgi yeast,CD11b adhes inh,PLAP act
CC(C)CNS(=O)(=O)c1ccc(CCC(=O)NCC2CCCO2)cc1 (configuration not stated),8,-8,-4,-6,-9,-24,0.9
CCOC(=O)N1CCC(NC(=O)C2CCCCN2S(=O)(=O)c2ccc(F)cc2)CC1 (configuration not stated),2,-6,13,-3,5,-1,1.6
O=C(NCc1cccnc1)c1ccc2c(=O)n(CCCN3CCCC3=O)c(=S)[nH]c2c1,12,-5,-1,-2,0,-6,1.1
CCN(CCNC(=O)C1CC(=O)N(CCc2ccccc2)C1)c1ccccc1 (configuration not stated),3,1,19,-11,3,.,1.4
O=C(N1CCOCC1)N1CCC(c2nc(-c3ccc(S(=O)(=O)N4CCOCC4)cc3)no2)CC1,20,0,-7,-3,-1,-3,1.3
O=C(Nc1nc(SCc2ccc(F)cc2)ns1)c1ccco1,.,.,-10,-4,.,.,.
CC(Oc1ccc(-c2ccccc2)c(F)c1)c1ccn(S(=O)(=O)c2ccc(F)cc2)n1 (configuration not stated),-4,-20,15,2,2,.,.
O=C(C1CCCCC1)N1CCCC(c2nc(-c3ccc(F)cc3)no2)C1 (configuration not stated),9,-10,12,-2,-3,-1,1.5
CCOC(=O)c1sc(NC(=O)c2cccc(S(=O)(=O)N(CC)CC)c2)cc1C,-2,-11,18,-3,12,5,0.9
O=C(Nc1ccccc1)C1=C(O)CC(c2ccoc2)CC1=Nc1ccccc1 (configuration not stated),46*,-7,-5,-1,14,-7,0.9
COc1ccc(-c2cc(C(F)(F)F)nc(S(C)(=O)=O)n2)cc1OC,87*,3,3,10,55*,1,1.3
CC12CCC(C(=O)N(CC(O)CN3CCCCC3)C1=O)C2(C)C (configuration not stated),3,6,7,-3,6,0,0.9
O=C(Nc1cccc(C(F)(F)F)c1)NC1CCN(S(=O)(=O)c2ccc(F)cc2)CC1,0,0,15,-5,2,-1,0.8
O=C(Nc1ccccc1)c1ccc(NCCN2CCOCC2)c(S(=O)(=O)N2CCOCC2)c1,2,0,9,-1,0,-4,1.5
Cn1c(=O)c2c(nc(Cl)n2Cc2ccc(Cl)c(Cl)c2)n(C)c1=O,7,-3,8,-7,16,.,0.9
COC(=O)c1c(CCl)noc1C(=O)NC(C)C,-6,1,2,-9,10,-8,1
COc1cc(S(=O)(=O)N2CCCCC2)ccc1NC(=O)Cc1ccccc1,5,-9,4,-3,-4,-6,0.9
CCOC(=O)C1CCN(C(=O)CC(NS(=O)(=O)c2ccc(OC)cc2)C(C)C)CC1 (configuration not stated),8,8,6,-2,-1,17,1.2
Cc1ccc2[nH]c(=O)c(-c3noc(C(C)C)n3)cc2c1,18,7,6,-2,-6,-7,1.3
COc1ccc(S(=O)(=O)N2CCN(C(=O)[C@@H]3CCC(=O)N3C3OC(=O)c4ccccc43)CC2)cc1 (some centres not stated),7,2,14,-6,0,3,1
Cc1nc2ccc(NC(=O)N3CCSCC3)cc2s1,31*,1,-44,4,18,-4,0.7
O=C(CCc1ccccc1)NC(NC(=S)Nc1ccc(Cl)cc1)C(Cl)(Cl)Cl (configuration not stated),-8,-3,-16,0,-2,-5,0.9
O=S(=O)(NCC1CCCO1)c1ccc2c(c1)OCCO2 (configuration not stated),-3,13,5,3,2,.,0.9
CCOC(=O)N1CCN(C(=O)c2ccc3c(=O)n(-c4ccc(F)cc4)c(=S)[nH]c3c2)CC1,13,-7,-6,1,1,-5,1
CCCC(=O)Nn1cnc2c(c1=O)C1(CCCC1)Cc1ccccc1-2,18,1,5,-1,-3,3,1
COc1ccc(C(=O)Nc2ccc(-c3cn4ccsc4n3)cc2)cc1S(=O)(=O)N1CCOCC1,5,-4,0,2,-2,-4,0.9
O=C(O)C1CCCN1S(=O)(=O)c1ccc(Br)s1 (configuration not stated) (tested in a mixture with another compound),8,3,2,-3,-3,-55,1.2

Compound activity from PubChem.

An excerpt (hit frequency here may not be typical).
